# LANA-H2B inh = blocks KSHV LANA binding to histone H2A/H2B; Q9QR71; cell-free LANA-H2A/H2B peptide, fluorescence polarization; inhibition, % (test concentration not listed); 0.6% of 320,000 active; AID 2629; in the data active means inhibition mostly above about 10%, no sharp cut-off; inactive means mostly below about 6.7%;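 further: stock transfer was 7.5 nL into about 10 µL; 0% = median of vehicle wells and 100% = median of positive control wells; one replicate is shown; the record names a cut of 25% in any replicate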
# Vif A3G = HIV-1 Vif–A3G interaction blockers – biochemical, TR-FRET, GST-Vif 1-94, biotin-A3G peptide, dose response retest, primary screen (AID 1117319); TR-FRET GST-Vif / biotin-A3G peptide binding; higher % means a stronger effect; test concentration not given here; strong numbers were not always called active; one-dose inhibition, %; IC50 in µM for titrated hits; 0.57% of 260,000 active;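 active means above the screen mean plus three standard deviations and confirmed in dose response; inconclusive means results disagree or hit not tested in dose response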;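 further: Vif residues 1-94 fused to GST binding biotinylated APOBEC3G peptide 110-148; 0% = full assay without inhibitor and 100% = GST in place of GST-Vif; retest series ran down from 100 µM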
# ALR H2O2 inh = human ALR oxidase inhibition via reduced H2O2; purified ALR, DTT oxidation, H2O2 HRP-luminol luminescence; inhibition, % (test concentration not listed); 3.8% of 290,000 active; AID 485317;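 active means mean and each replicate at 75% or more; inconclusive means only one of the two met; inactive means neither met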;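 further: stock transfer was 7.5 nL into about 7.5 µL; 0% = neutral wells and 100% = wells with inactivated enzyme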
# Target sequence (P55789 whole entry, looked up): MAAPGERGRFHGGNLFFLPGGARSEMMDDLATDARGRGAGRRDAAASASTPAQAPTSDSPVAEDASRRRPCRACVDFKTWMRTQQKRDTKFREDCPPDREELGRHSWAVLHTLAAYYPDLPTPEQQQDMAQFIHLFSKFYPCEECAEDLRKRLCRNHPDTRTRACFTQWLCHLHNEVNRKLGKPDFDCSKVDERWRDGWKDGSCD
# Calb FLC = affects C. albicans growth with fluconazole | C. albicans CaCi-2 (fluconazole-resistant clinical isolate) + fluconazole, Alamar Blue growth, 48 h | growth inhibition, % (no concentration beside the values) | 0.57% of 300,000 active;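 active means most replicates above 75%; inconclusive means exactly half above 75%; inactive means most below 75%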;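 further: all wells also contain fluconazole at 8 µg/ml as a sub-toxic cotreatment; 0% = median of DMSO wells and 100% = median of geldanamycin control wells; wells of about 8 µL received 7.5 nL stock; the first replicate is given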
# B2AR ag = human beta-2 adrenergic receptor agonism by FAP; P07550; Am2.2-beta2AR cells, FAP receptor internalization, flow cytometry; reference of the scale not given here; response, % (concentration not given with the values); 0.43% of 340,000 active; AID 504454;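 active means response above a set limit, near 3 SD of response in nonfluorescent compounds, cut at about 42% in these data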;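 further: stock transfer was 100 nL into about 11 µL; a reference agonist was the positive control; negative values mostly stem from fluorescent compounds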
# Target sequence (P07550 whole entry, looked up): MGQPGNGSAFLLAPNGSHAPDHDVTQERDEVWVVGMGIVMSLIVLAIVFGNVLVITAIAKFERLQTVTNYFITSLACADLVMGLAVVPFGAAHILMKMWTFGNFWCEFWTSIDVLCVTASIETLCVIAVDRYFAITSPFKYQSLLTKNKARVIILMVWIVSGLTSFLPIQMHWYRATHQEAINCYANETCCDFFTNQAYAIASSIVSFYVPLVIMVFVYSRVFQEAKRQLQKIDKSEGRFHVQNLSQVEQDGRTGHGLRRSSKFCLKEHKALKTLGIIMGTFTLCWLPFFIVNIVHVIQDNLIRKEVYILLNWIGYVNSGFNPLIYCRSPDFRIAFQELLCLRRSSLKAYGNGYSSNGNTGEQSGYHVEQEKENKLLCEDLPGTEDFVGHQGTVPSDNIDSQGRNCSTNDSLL
# RanGTP-Impb inh = disruptors of Ran-importin-beta complex formation – biochemical, FRET, CFP-Ran, YFP-importin-beta, homogeneous, primary screen | cell-free CFP-Ran/YFP-importin-beta FRET ratio | inhibition, % (no concentration beside the values) | 1.1% of 300,000 active;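 active means most replicates above 15%; inconclusive means exactly half above 15%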;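 further: 0% = DMSO wells and 100% = Ran loaded with GDP instead of GTP; wells of about 40 µL received 100 nL stock; the first replicate is given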
# HNF4A DNA FP = change in binding of human HNF4 alpha to DNA; activity change, % at 10 µM; P41235; 0.3% of 360,000 active; HNF4a-FITC DNA binding, fluorescence polarization, 1 h; in the data active means activity change above about 30%, passing the limit was not always enough;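 further: controls were the assay level and a saturating level of protein; the project sought stronger binding though the title names inhibitors; some compounds called inactive have numbers as strong as hits; positive values seem to mean higher polarization but the record does not say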
# Target sequence (P41235 whole entry, looked up): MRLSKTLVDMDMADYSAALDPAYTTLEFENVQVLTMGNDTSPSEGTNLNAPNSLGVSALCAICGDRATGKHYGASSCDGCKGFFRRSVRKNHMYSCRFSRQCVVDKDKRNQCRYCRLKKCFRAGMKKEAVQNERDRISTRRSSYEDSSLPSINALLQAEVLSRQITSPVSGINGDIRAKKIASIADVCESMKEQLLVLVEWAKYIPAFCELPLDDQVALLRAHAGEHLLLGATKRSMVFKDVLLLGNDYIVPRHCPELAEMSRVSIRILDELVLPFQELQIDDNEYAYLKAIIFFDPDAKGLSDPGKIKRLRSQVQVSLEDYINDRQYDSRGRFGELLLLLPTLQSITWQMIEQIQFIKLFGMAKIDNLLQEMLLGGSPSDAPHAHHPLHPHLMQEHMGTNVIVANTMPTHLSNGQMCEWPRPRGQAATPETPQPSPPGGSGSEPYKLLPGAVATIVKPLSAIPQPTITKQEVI
# Numbers without * were called inactive; i = inactive; ? = inconclusive; . = no result given; & = joins results of further samples.
SMILES,LANA-H2B inh,Vif A3G,ALR H2O2 inh,Calb FLC,B2AR ag,RanGTP-Impb inh,HNF4A DNA FP
O=C(Nc1ccc(-c2nc3ccccc3[nH]2)cc1)C1CCCO1 (stereo not given),-3.3,1%,-4,8,-11,-3.1,3.6
Cc1cc(NC(=O)c2ccc(S(=O)(=O)N3CCOCC3)cc2)no1,-0.9,?,-1,-2,1,-0.1,2.4
Cc1ccc(CNC(=O)NCc2ccccc2)cc1,7.8,-1%,-11,-23,4,.,0.7
Cc1ccc(C)c(NS(=O)(=O)c2cc(C(=O)NCc3ccccn3)ccc2Cl)c1,1.4,9%,-17,0,-1,6.4,-1.9
CC1CCC(NCCNC(=O)c2ccco2)CC1 (stereo not given),0.3,.,-3,2,7,2.9,-0.3
O=C(O)CCc1ccc(-c2ccc(Br)cc2)n1NC(=O)c1ccc([N+](=O)[O-])cc1,-1.2,5%,29,-7,-2,-0.4,0.5
CC(=O)Oc1ccc2c(c1)C(=O)c1ccccc1C2=O,-1.0,9%,.,-7,-1,0.0,0.9
C/C(=N/Nc1nc(C)c(C)s1)c1cccc([N+](=O)[O-])c1,-7.4,.,6,-11,-4,2.6,-0.8
Cc1cccn2c(=O)c(/C=C3\SC(=S)N(CC(C)C)C3=O)c(NCCCOC(C)C)nc12,-6.9,1%,-8,.,i,.,83*
CCOC(=O)c1c(NC(=O)CSc2nnc(CNc3ccc(OC)cc3)n2C)sc(C)c1C,0.4,-2%,9,8,-3,-2.0,-0.9
CCN(CC)S(=O)(=O)c1ccc2oc(SCC(=O)Nc3cc(C)on3)nc2c1,99*,.,6,21,11,-4.1,-5.8
CC1CCCCN1C(=O)c1cnn2c(C(F)(F)F)cc(-c3ccco3)nc12 (stereo not given),-6.4,8%,1,17,-11,-0.4,0.4
COc1ccccc1CC(=O)Nc1ccc(C(=O)N2CCCCC2)cc1,-1.3,1%,0,-11,-4,-0.3,1.9
NC(=O)CCC(C(=O)O)N1C(=O)c2ccc(O)cc2C1=O (stereo not given),7.0,-8%,-8,-9,-8,2.9,-1.4
COc1ccc(C(CNC(=O)c2oc3cc(C)c(Cl)cc3c2C)N2CCCCC2)cc1 (stereo not given),-1.5,.,-5,-4,-5,-2.4,-1.1
Cc1ccc(N=Nc2c(N)[nH]n3c(=O)cc(-c4ccccc4)nc23)cc1,-6.1,7%,-3,-28,10,.,1.3
N#Cc1ccc(C(=O)NC(=S)N2CCOCC2)cc1,0.9,.,6,.,3,.,6.6
Cc1ccc(NC(=O)CCN2CCN(C/C=C/c3ccccc3)CC2)cc1C,.,-1%,.,-4,11,-3.8,5.5
CC1=NNC(=O)C1C(c1ccccc1)C1C(=O)NN=C1C (stereo not given),8.6,15%,1,10,.,?,.
CCOc1ccccc1CN1CCNC(=O)C1CC(=O)N(C)CCc1ccccn1 (stereo not given),1.5,.,7,-10,-3,2.9,4.0
COc1ccc(S(=O)(=O)N2CCOCC2)cc1NC(=O)COc1cccnc1[N+](=O)[O-],-5.4,-12%,-8,20,-9,5.0,-1.0
O=[N+]([O-])c1ccccc1N/N=C\c1ccccc1Cl,1.5,6%,-1,3,-3,-6.4,-1.0
O=C(c1ccc([N+](=O)[O-])cc1)N1CCN(C2=NS(=O)(=O)c3ccccc32)CC1,0.8,.,-3,-3,-2,-0.9,1.0
O=C(CN1CCN(C/C=C/c2ccccc2)CC1)NCc1ccccc1,4.0,-8%,-3,-8,-6,.,-0.9
COc1ccc(N(C)S(=O)(=O)c2cccc(C(=O)NC3=NCCS3)c2)cc1,-0.4,?,5,-7,-5,-3.3,0.7

# 2 entries from above, tab-delimited:
smiles	LANA-H2B inh	Vif A3G	ALR H2O2 inh	Calb FLC	B2AR ag	RanGTP-Impb inh	HNF4A DNA FP
Cc1cc(NC(=O)c2ccc(S(=O)(=O)N3CCOCC3)cc2)no1	-0.9	?	-1	-2	1	-0.1	2.4
CC(=O)Oc1ccc2c(c1)C(=O)c1ccccc1C2=O	-1.0	9%	.	-7	-1	0.0	0.9

# 3 structures already listed, arranged by molecular weight, falling:
SMILES,LANA-H2B inh,Vif A3G,ALR H2O2 inh,Calb FLC,B2AR ag,RanGTP-Impb inh,HNF4A DNA FP
CC1=NNC(=O)C1C(c1ccccc1)C1C(=O)NN=C1C (stereo not given),8.6,15%,1,10,.,?,.
CC(=O)Oc1ccc2c(c1)C(=O)c1ccccc1C2=O,-1.0,9%,.,-7,-1,0.0,0.9
Cc1ccc(CNC(=O)NCc2ccccc2)cc1,7.8,-1%,-11,-23,4,.,0.7

# More structures
SMILES,LANA-H2B inh,Vif A3G,ALR H2O2 inh,Calb FLC,B2AR ag,RanGTP-Impb inh,HNF4A DNA FP
COc1ccc(CNC(=O)Cn2ccc([N+](=O)[O-])n2)cc1OC,-2.7,1%,6,-3,9,3.0,-2.9
CCCCN1CN(S(=O)(=O)c2cccs2)c2nc3ccccc3nc21,.,-2%,.,-3,.,6.2,.
CCN1C(=O)C(NC(C)=O)c2cc(Br)ccc21 (stereo not given),0.2,3%,9,-2,2,-3.8,-0.9
O=C(Nc1ccc(Oc2ccccc2)nc1)C1CCCCN1Cc1cccc(O)c1 (stereo not given),1.6,.,3,-16,-2,-1.6,-4.8
COC(=O)c1c(C)[nH]c(C)c1-c1ccc(C)cc1,-6.2,1%,-9,4,-1,-4.3,-2.3
CCOc1ccc(N2CC(C(=O)NCc3ccc4c(c3)OCO4)CC2=O)cc1 (stereo not given),-2.3,.,-6,-13,-2,3.0,2.0
COc1ccc(NC(=O)Nc2cccc3c2O[C@H](CN(C)C(=O)Nc2ccc4c(c2)OCO4)[C@@H](C)CN([C@H](C)CO)C3=O)cc1,6.9,.,-6,.,5,.,-1.6
O=C(c1ccc2c(c1)OCO2)N1CCCc2ccccc21,-1.3,30%,-16,-11,5,2.1,-2.3
CC(=O)Oc1c(C)c(OC(C)=O)c2c(c1C(C)=O)OC1CC(=O)C(C(C)=O)=C(O)C21C (stereo not given),3.4,23%,7,-1,-1,3.1,3.8
O=C(c1ccccc1Br)N1CCN(c2ncccn2)CC1,0.8,6%,-3,2,-9,2.9,1.4
CC(OC(=O)c1ccco1)C(=O)NC1CCCCC1 (stereo not given),3.8,17%,-5,-10,-3,-4.8,2.0
COc1cccc(CC(=O)NC2CCSc3ccccc32)c1 (stereo not given),-1.5,4%,-3,-2,9,-2.5,-0.9
COC(C(=O)Nc1ccc(S(=O)(=O)Nc2cccc3ccccc23)cc1)c1ccccc1 (stereo not given),-2.1,?,.,?,4,-2.0,0.2
CC(C)=CC(=O)Nc1ccc(OCc2ccccc2)cc1,1.3,-4%,-2,-11,-1,-2.8,-4.9
COc1ccc(C(=O)Nc2ccccc2N2CCN(C(=O)C(C)C)CC2)cc1Cl,0.2,19%,1,0,-5,0.5,-0.8
O=C(N/N=C/c1ccc(OCC(=O)N2CCCCC2)cc1)c1ccccc1O,1.1,8%,0,3,-3,1.8,-0.7
CCOc1ccc(OCCC(=O)OCC(=O)Nc2cc(OCC)c(N3CCOCC3)cc2OCC)cc1,-8.5,.,14,-10,-1,?,0.8
CC(O)c1nc2ccccc2n1Cc1ccc([N+](=O)[O-])cc1 (stereo not given),3.8,?,-3,11,-2,7.4,-3.7
CC1CC(C)CN(c2ccc([N+](=O)[O-])nc2)C1 (stereo not given),2.7,-10%,-12,-6,7,-2.2,6.0
CCOc1ccccc1CN1C(=O)NC(C)(c2ccccc2)C1=O (stereo not given),0.2,20%,.,-13,-3,4.6,3.0
CCN1CCCc2cc(CN(CCN3CCOCC3)C(=S)Nc3ccc(OC)cc3)ccc21,6.6,-1%,99*,-8,-7,5.1,-3.6
CCn1c(-c2cccnc2Cl)nc2ccccc21,-3.4,-4%,-4,-13,-1,1.2,-4.2
CCN(c1ccc(OC)cc1)S(=O)(=O)c1ccc(-c2cc(C)no2)s1,-0.6,1%,-4,7,-16,3.3,2.9
COC(=O)c1cncn1Cc1ccccc1,.,-4%,.,.,4,.,-5.4
CCN(CC)c1ccc(NC(=O)COC(=O)c2ccc3ccccc3n2)cc1,-2.0,6%,99*,-16,14,-2.2,9.9

# One compound at a time, from the list above. Order of values: LANA-H2B inh	Vif A3G	ALR H2O2 inh	Calb FLC	B2AR ag	RanGTP-Impb inh	HNF4A DNA FP
# COc1cccc(CC(=O)NC2CCSc3ccccc32)c1 (stereo not given) is listed with -1.5	4%	-3	-2	9	-2.5	-0.9
# CCN(CC)c1ccc(NC(=O)COC(=O)c2ccc3ccccc3n2)cc1 is listed with -2.0	6%	99*	-16	14	-2.2	9.9
# CC(OC(=O)c1ccco1)C(=O)NC1CCCCC1 (stereo not given) is listed with 3.8	17%	-5	-10	-3	-4.8	2.0

# Next part.
SMILES,LANA-H2B inh,Vif A3G,ALR H2O2 inh,Calb FLC,B2AR ag,RanGTP-Impb inh,HNF4A DNA FP
Cn1c(=O)c2c(ncn2Cc2ccc(Cl)cc2)n(C)c1=O,-2.4,.,-3,-28,4,0.7,6.5
COc1cc(NC(=O)c2ccccc2)c(OC)cc1NC(=O)CN1CCOCC1,1.2,9%,-39,2,-2,3.0,0.7
CC(C)NC(=O)CSc1nccc(-c2cccs2)n1,4.6,1%,-6,16,-16,-0.4,-2.6
O=C(CNC(=O)c1cccs1)c1ccc(F)cc1,-2.1,9%,.,2,-2,1.6,-3.7
Cc1ccc(NC(=O)CSCC(=O)Nc2cc(Cl)ccc2N2CCOCC2)cc1,-8.2,3%,-6,5,-8,0.2,3.3
COc1ccc(CN2CCN(C3CCC3)CC2CCO)c(F)c1 (stereo not given),-2.2,-3%,7,-3,10,3.9,-0.8
O=C1CC(c2ccccc2)CC(O)=C1C=Nc1ccccc1Cl (stereo not given),-2.5,-6%,8,-1,-2,2.6,1.8
Cc1cc(C)c(S(=O)(=O)N2CCCOC2CNC(=O)C(=O)NCc2ccco2)c(C)c1 (stereo not given),3.4,18%,-3,?,-6,-0.9,2.1
COCCN(C(=O)COC(=O)CSc1ccc(Cl)cc1)c1c(N)n(Cc2ccccc2)c(=O)[nH]c1=O,-2.0,0%,-15,0,-1,2.0,3.0
COc1ccc(CN2CCOC2=O)cc1OC,-4.4,-6%,.,1,-10,4.9,-0.8
Cc1ccc(S(=O)(=O)N(Cc2ccccc2Cl)C(=O)N2CCN(C)CC2)cc1,-4.9,-11%,1,6,-2,1.3,1.5
COc1ccccc1C(=O)O/N=C(\N)c1ccc(Cl)cc1,-0.9,6%,11,?,7,0.1,3.4
CCn1c(CC(=O)Nc2cccc(Cl)c2Cl)nnc1SCCOc1ccc(OC)cc1,-3.1,5%,-8,-2,11,2.7,-2.8
C[C@@H]1C[C@H]2[C@@H]3C[C@H](F)C4=CC(=O)C=C[C@]4(C)[C@@]3(Cl)[C@@H](O)C[C@]2(C)[C@H]1C(=O)COC(=O)C(C)(C)C,2.0,.,-1,.,-8,.,2.2
CCc1ccc(OCC(=O)OCC(=O)NCCNC(=O)COC(=O)COc2ccc(CC)cc2)cc1,0.0,.,-2,1,-2,2.9,-0.2
COC(=O)c1ccc(COc2cc(C)ccc2C)o1,0.1,-4%,-7,-7,0,3.7,4.2
COc1ccc2c(c1O)C(=O)c1ccccc1C2=O,0.0,23%,-20,-1,.,5.8,.
CCCCNC(=O)c1c(O)c2cccc3c2n(c1=O)CCC3,-0.7,77%,-16,3,-3,-2.1,1.3
O=C(O)Cn1c(SCc2cccc3ccccc23)nc2ccccc21,2.5,-13%,98*,-4,-4,-3.8,0.7
CC(C)CCC(C(=O)O)C(C)CC(=O)NNC(=O)c1ccco1 (stereo not given),-0.5&6.3,-8%&4%,2&12,0&-7,0&-4,-0.3&-4.1,-4.0&2.0
C/C(=N/O)c1ccccn1,5.2,-19%,-26,5,-3,4.3,-4.0
C=C(C)Cn1c(CCNC(=O)C(C)(C)C)nc2ccccc21,-3.6,2%,-3,-4,-4,2.3,1.8

# Screening results (PubChem BioAssay)
